MbtI inh: MbtI salicylate synthase inhibition; P9WFX0; purified MbtI enzyme, fluorescence intensity read-out; inhibition, %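 (about 17 µg/mL by stock and volumes)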; 100,000 tested, 0.89% active;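 active = above 50% in both replicates, above 80% if mildly self-fluorescent; inactive = the rest, strongly fluorescent compounds included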;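 note: 0% = mean of negative and 100% = mean of positive controls; one replicate is shown; some compounds called inactive have numbers as strong as hits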
Target sequence (P9WFX0 whole entry, looked up): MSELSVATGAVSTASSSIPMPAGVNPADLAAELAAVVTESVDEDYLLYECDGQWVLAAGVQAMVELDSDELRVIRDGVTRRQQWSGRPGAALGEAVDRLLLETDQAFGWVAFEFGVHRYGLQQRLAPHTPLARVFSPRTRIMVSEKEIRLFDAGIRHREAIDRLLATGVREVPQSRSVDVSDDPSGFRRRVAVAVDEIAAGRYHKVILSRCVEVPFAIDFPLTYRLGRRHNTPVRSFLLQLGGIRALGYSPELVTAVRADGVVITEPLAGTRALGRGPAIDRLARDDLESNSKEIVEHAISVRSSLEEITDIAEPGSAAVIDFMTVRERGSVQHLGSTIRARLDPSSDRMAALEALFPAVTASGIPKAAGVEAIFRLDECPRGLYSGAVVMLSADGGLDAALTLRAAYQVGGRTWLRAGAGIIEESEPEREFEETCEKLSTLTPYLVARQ
MenB inh: blocks the Mycobacterium tuberculosis MenB enzyme | P9WNP5 | MenB enzyme assay, absorbance read-out; some hits fall short of the stated cut | inhibition, %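 (about 12 µg/mL by stock and volumes)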 | 100,000 tested, 0.43% active | AID 540299;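 active = mean of two replicates above 30%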;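 note: 0% = no compound and 100% = wells with inactive enzyme; the first replicate is given; strong numbers were not always called active; inactives centre near -10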
PV pol inh: inhibitors of poliovirus RNA polymerase binding and polymerization | P03300 | poliovirus polymerase elongation, fluorescence polarization; active compounds read low | % elongation, % (compound at 16.7 µg/mL) | 150,000 tested, 0.66% active; in the data active = % elongation below about 90%; note: some results filed as inactive read as strong as hits
Target sequence (P03300 1749-2209 limits assumed): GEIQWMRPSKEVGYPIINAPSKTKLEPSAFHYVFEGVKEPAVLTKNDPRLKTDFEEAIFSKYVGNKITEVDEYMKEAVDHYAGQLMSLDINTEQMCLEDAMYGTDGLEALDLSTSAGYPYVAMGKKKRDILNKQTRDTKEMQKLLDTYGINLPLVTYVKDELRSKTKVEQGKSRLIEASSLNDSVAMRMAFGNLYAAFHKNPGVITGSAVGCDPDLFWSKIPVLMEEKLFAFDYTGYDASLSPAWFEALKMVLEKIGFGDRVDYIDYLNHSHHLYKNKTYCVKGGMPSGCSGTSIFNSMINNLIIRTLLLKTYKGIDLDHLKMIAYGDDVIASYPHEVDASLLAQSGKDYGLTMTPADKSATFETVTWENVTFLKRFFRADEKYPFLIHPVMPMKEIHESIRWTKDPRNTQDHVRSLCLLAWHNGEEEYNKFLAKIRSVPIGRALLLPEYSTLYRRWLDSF
PV pol inh intensity: recorded beside PV pol inh, whose call it bears; % elongation; measured here: total intensity read-out; formula for this scale not given here;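 total fluorescence in place of polarization; lower means less elongation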
* = called active by the depositor; x = no result given; & = joins results of further samples.

no. | SMILES | MbtI inh | MenB inh
1 | O=C(NCCN1C(=O)S/C(=C\c2ccc(F)cc2)C1=O)c1cc(F)c(F)c(F)c1F | -8 | x
2 | CCOC(=O)Cc1csc(SC(C)C#N)n1 (stereo unspecified) | 10 | -2
3 | Cc1ccc(-c2noc(CNC(=O)c3ccc4c(c3)OCO4)n2)cc1 | -4 | 3
4 | CC1CCN(C(=O)CSc2c3c(nc4ccccc24)CCCC3)CC1 | -7 | -33
5 | Cn1c(=O)c2c(SC/C(O)=C(\C#N)c3nc4ccccc4[nH]3)nc(C(C)(C)C)nc2n(C)c1=O | 9 | -1
6 | Cc1c(C(=O)NCCN2CCOCC2)sc2nc3n(c(=O)c12)CCCC3 | -3 | 9
7 | COC(=O)CNC(c1ccccc1)c1cc(Br)ccc1NC(=O)CN1CCOCC1 (stereo unspecified) | -1 | -7
8 | COc1ccccc1NC(=O)N1CCCN(Cc2ccc(F)cc2)CC1 | -12 | -12
9 | CC1(C)OC2[C@H](n3cnc4c(N)ncnc43)O[C@H](CO)[C@H]2O1 (stereo partly specified) | -16 | 1
10 | CCCCC(c1nnnn1C(C)C)N1CCN(c2ccc(F)cc2)CC1 (stereo unspecified) | -2 | -24
11 | Cc1cc(C(F)(F)F)nn1Cc1ccc(C(=O)O)cc1 | -6 | x
12 | CC(C)NC1CCC(C(C)(C)C)CC1 (stereo unspecified) | -13 | -15
13 | O[C@@H]1CC2C3C[C@H](O)C4C3CC2C41 (stereo partly specified) | -2 | -41
14 | CCCCCC1C(O)CCC1CC(=O)OC (stereo unspecified) | -4 | 1
15 | N=C1/C(=C/c2cccn2-c2ccc(Br)cc2)C(=O)N=C2SC=CN12 | -3 | -32

no. | PV pol inh | PV pol inh intensity
1 | 101 | 99
2 | 102 | 108
3 | 103 | 103
4 | 101 | 107
5 | 116 | 125
6 | 99 | 100
7 | 101 | 109
8 | 107 | 110
9 | 107 | 106
10 | 103 | 104
11 | 100 | 104
12 | 100 | 108
13 | 100 | 105
14 | 106 | 110
15 | 103 | 102

Going on with the list.
no. | SMILES | MbtI inh | MenB inh
16 | COC(=O)NCC(c1cccnc1)N1CCN(c2ccccc2)CC1 (stereo unspecified) | -2 | -24
17 | COc1ccccc1C(=O)NC1CCN(C)CC1 | -15 | -15
18 | COc1ccccc1CNC1CCCC1 | -8 | -30
19 | Cc1ncc(CO)c2cc(C(=O)Nc3ccccc3S(N)(=O)=O)c(=O)oc12 | 75 | -8
20 | CCOC(=O)c1nc(N)nc(Nc2ccccc2)n1 | 2 | -24
21 | Cc1cc(S(=O)(=O)N(C)Cc2ccccc2)ccc1-n1cnnn1 | -2 | 22
22 | CCOc1ccccc1NC(=O)CCN1C(=O)NC2(CCCC2)C1=O | -3 | -12
23 | Cc1ccc(Nc2nc(COC(=O)c3ccc(-n4cnnn4)cc3)cs2)cc1 | -11 | -14
24 | O=C(c1cccc(N2C(=O)C3C4C=CC(C4)C3C2=O)c1)N1CCN(c2ccccc2F)CC1 (stereo unspecified) | -27 | -16
25 | O=S(=O)(c1ccccc1)c1nc(-c2cccs2)oc1NCc1cccnc1 | -49 | -22
26 | COc1ccc(/C(C)=N/NC(=O)c2ccc(CN3CCOCC3)cc2)cc1 | 4 | -19
27 | CC(=O)N(CN1C(=O)c2ccccc2C1=O)c1ccccc1 | 2 | 4
28 | O=C(O)c1ccccc1NCc1ccc2c(c1)OCO2 | 116 | 8
29 | COc1cccc(C2=NOC(C(=O)NC(C)C)C2)c1 (stereo unspecified) | -9 | -22
30 | CCCCC/C=C\C/C=C\CCCCCCCC(N)=O | -15 | -1

no. | PV pol inh | PV pol inh intensity
16 | 100 | 103
17 | 102 | 103
18 | 104 | 105
19 | 100 | 103
20 | 102 | 105
21 | 100 | 102
22 | 97 | 106
23 | 108 | 110
24 | 101 | 101
25 | 107 | 110
26 | 101 | 102
27 | 103 | 103
28 | 102 | 101
29 | 104 | 102
30 | 102&100 | 105&104

Continued.
no. | SMILES | MbtI inh | MenB inh
31 | O=C(CSc1ccccc1C(=O)Nc1ccccc1N1CCCC1)NCc1ccco1 | -6 | -12
32 | CC(C)N(C(=O)N1CCN(c2ccnc3cc(Cl)ccc23)CC1)C(C)C | -5 | 2
33 | COC(=O)c1ccc(C(=O)Nc2ccc(C(F)(F)F)cc2)nc1 | -3 | -21
34 | Cc1cccc(C)c1OCCN1C(=O)c2ccccc2C1(O)c1ccccc1 (stereo unspecified) | x | -18
35 | COc1ccc(OC)c(-c2n(C)c3ccccc3[n+]2C)c1 | 8 | x
36 | O=C(Cn1nnc(-c2ccccc2)n1)Nc1ccccc1 | x | -19
37 | c1ccc(CNCCCSc2ncccn2)cc1 | -4 | -2
38 | Cc1ccc(C(=O)OCC(N)=O)cc1C | 2 | -36
39 | O=C(Cc1ccc(-n2c(=S)[nH]c3ccccc3c2=O)cc1)NCCc1ccccc1 | 8 | -32
40 | CC(Sc1nncn1C)c1nnc(-c2cccs2)o1 (stereo unspecified) | 30 | -11
41 | CC(C)NC(=O)c1ccccc1C(=O)NC(C)C | -2 | x
42 | CCOC(=O)c1c(-c2ccccc2)oc2ccc(OCC(O)CN3CCOCC3)cc12 (stereo unspecified) | 102 | -12
43 | CCn1c(=O)c2c(nc3n2CCS3)n(C)c1=O | 8 | -6
44 | CCOc1ccc(C(=O)Nc2ccc(S(=O)(=O)N3CCOCC3)cc2)cc1OCC | 5 | -18
45 | CCCC1(CCC)NC(=O)N(Cc2cc(=O)oc3c(C)c(C)ccc23)C1=O | 14 | -8

no. | PV pol inh | PV pol inh intensity
31 | 102 | 106
32 | 106 | 108
33 | 107 | 98
34 | 108 | 109
35 | 102 | 97
36 | 105 | 103
37 | 104 | 102
38 | 101 | 99
39 | 101 | 105
40 | 103 | 103
41 | 101 | 97
42 | 100 | 107
43 | 100 | 100
44 | 103 | 102
45 | 101 | 125

Later entries:
no. | SMILES | MbtI inh | MenB inh
46 | CN(C)/C=N/c1sc2c(c1C#N)CCC2 | 4 | 5
47 | Cc1cc(=O)oc2cc(OCC(=O)OCC(=O)c3ccc4c(c3)NC(=O)CO4)ccc12 | -17 | -10
48 | CC1(C)Cc2ccccc2C(C)(C(=O)NN)N1 (stereo unspecified) | -15 | -16
49 | O=C(NCc1ccc2c(c1)OCO2)c1cccc2ccccc12 | x | 9
50 | Cc1sc2nc(CSCC(=O)c3cc(C)n(CCC(C)C)c3C)[nH]c(=O)c2c1C | -30 | -2
51 | CCOC(=O)c1cc(C)n(Cc2ccc(OCC)c(OC)c2)c1C | -24 | -15
52 | CCOC(=O)c1c(C)nn(-c2ncccc2NC(=S)NCc2ccco2)c1C | -4 | -15
53 | Cc1ccc(S(=O)(=O)C(F)(F)F)cc1 | -10 | x
54 | CCCNC(=O)Nc1ccc(S(=O)(=O)Nc2ccc(OCC)cc2)cc1 | -11 | -3
55 | CC(=O)N=C(N)/N=c1\nc(C)c2ccc(C)cc2n1C(C)=O | 3 | -17
56 | OC(COc1ccc(Br)cc1)Cn1ccnc1 (stereo unspecified) | -24 | -13
57 | COc1cc(NS(=O)(=O)c2ccc(N)cc2)nc(OC)n1 | 0&-17 | 10&-17
58 | NS(=O)(=O)c1cc(C(=O)O)cc(N2CCCC2)c1Oc1ccccc1 | -50 | 9
59 | Cc1ccc(SCCNS(C)(=O)=O)cc1 | -7 | 23
60 | N#CC1CCN(Cc2ccccc2)CC1 | x | 1

no. | PV pol inh | PV pol inh intensity
46 | 100 | 97
47 | 103 | 96
48 | 99 | 101
49 | 105 | 102
50 | 109 | 118
51 | 100 | 103
52 | 105 | 106
53 | 108 | 110
54 | 105 | 113
55 | 100 | 106
56 | 103 | 106
57 | 101&101 | 103&101
58 | 100 | 101
59 | 105 | 101
60 | 106 | 102

Other records follow:
no. | SMILES | MbtI inh | MenB inh
61 | CC1CCCCN1C(=O)CN(c1nccs1)S(=O)(=O)c1ccccc1 (stereo unspecified) | 2 | -35
62 | C=CCNC(=O)c1ccccc1NS(=O)(=O)c1ccc(Br)cc1 | 14 | x
63 | O=C(c1ccco1)N(CC1CCCO1)c1nc(-c2ccccc2)cs1 (stereo unspecified) | 5 | -77
64 | CN(Cc1ccco1)C(=O)c1cc2c(s1)-c1ccc(Cl)cc1S(=O)(=O)C2 | 6 | 2
65 | O=C(O)CC1(CC(=O)Nc2cccc(C(F)(F)F)c2)CCCC1 | 46 | -13
66 | CC(C)CC(=O)NC(=S)Nc1ccc2oc(-c3ccccc3)nc2c1 | 10 | -17
67 | CC1=NN(C(C)(C)C#N)C(c2ccccc2)C1 (stereo unspecified) | 5 | 7
68 | CC1(C)O[C@H]2O[C@H](C(O)COC(=O)c3ccccc3)[C@H](OC(=O)c3ccccc3)[C@H]2O1 (stereo partly specified) | 9 | -23
69 | O=C1OCc2ccc(NS(=O)(=O)c3ccc(C(F)(F)F)cc3)cc21 | -7 | -13
70 | c1csc(CNC2C3CC4CC(C3)CC2C4)c1 (stereo unspecified) | -2 | -42
71 | CCN(CC)c1nc2ccccc2c(N)c1-c1ccccc1 | -47 | 2
72 | C=CCn1c(NC(=O)CC)c(C(=O)OCC)sc1=S | 59 | -36
73 | CC(C)CN1CCOC(CNCc2ccc(-c3nc4ccccc4s3)o2)C1 (stereo unspecified) | 70 | -14
74 | COc1cc2c(cc1OC)C(c1c(-c3ccccc3)noc1C)=NCC2 | -18 | -13
75 | CC(=O)Oc1ccc(NNc2ccccc2)cc1 | x | -12

no. | PV pol inh | PV pol inh intensity
61 | 123 | 131
62 | 103 | 98
63 | 103 | 99
64 | 100 | 103
65 | 104 | 105
66 | 98 | 99
67 | 103 | 103
68 | 101 | 101
69 | 106 | 104
70 | 102 | 103
71 | 100 | 105
72 | 93 | 101
73 | 109 | 113
74 | 111 | 115
75 | 102 | 104

(next part)
no. | SMILES | MbtI inh | MenB inh
76 | COc1ccc(-n2cnc(=O)c(C#N)c2SC)cc1 | 14 | 6
77 | CC(OC(=O)c1ccccc1NCc1ccco1)C(=O)Nc1ccc2c(c1)OCO2 (stereo unspecified) | -53 | -26
78 | CCOC(=O)CSC1=C(C#N)C(c2ccc(Cl)cc2)C(C(=O)OC)C(=O)N1 (stereo unspecified) | -4 | -31
79 | O=C(Cn1nnc(-c2cccs2)n1)N1CCCC1c1ccc2c(c1)OCCCO2 (stereo unspecified) | 5 | -17
80 | COc1ccc(C2=Nn3cnnc3SC2)cc1OC | x | -4
81 | CCc1c(C)nc2n(c1=O)C(CS(=O)(=O)c1ccc3ccccc3c1)CS2 (stereo unspecified) | 8 | -13
82 | COc1nc(Nc2ccc(OC(F)(F)F)cc2)nc(NC2CC2)n1 | x | -20
83 | O=C(CCCN1C(=O)S/C(=C/c2ccccc2)C1=S)N1CCOCC1 | x | -20
84 | CC(C)c1ccccc1NN | x | 11
85 | COc1ccc(CCN2CCCn3c2nc2c3c(=O)n(CC(N)=O)c(=O)n2C)cc1OC | 7 | -30
86 | C=CCOc1ccc(CNCc2ccco2)cc1OC | -10 | -37
87 | COc1nc2c(c(=O)n(C)c(=O)n2C)n1C | 7 | -12
88 | CNc1sc(C(=O)c2cccs2)c(N)c1-c1nc2ccccc2s1 | 97* | -43
89 | CC1=CC(C)(C)N(C(C)C)C(=O)N1c1ccc(C)cc1 | -5 | -18
90 | CN(CC(=O)Nc1ccc(OC(F)(F)F)cc1)C(=O)c1ccc(N2CCCC2=O)cc1 | 8 | -30

no. | PV pol inh | PV pol inh intensity
76 | 102 | 102
77 | 104 | 111
78 | 101 | 105
79 | 102 | 102
80 | 104 | 111
81 | 101 | 101
82 | 102 | 95
83 | 101 | 106
84 | 79* | 78*
85 | 107 | 94
86 | 102 | 100
87 | 102 | 106
88 | 110 | 107
89 | 103 | 96
90 | 103 | 107

Other results.
no. | SMILES | MbtI inh | MenB inh
91 | O=C(O)c1ccc(S(=O)(=O)c2ccc3c(c2)C(=O)N(C2CCCCC2)C3=O)cc1 | -20 | -30
92 | C=CCn1c2ccccc2n2cc(-c3ccccc3)nc12 | -11 | -59
93 | CC(C)C1OC(N)=NC1=O (stereo unspecified) | -7 | -3
94 | O=C1CCC/C(=N/NC(=O)c2cc(NS(=O)(=O)c3cccs3)cc(NS(=O)(=O)c3cccs3)c2)C1 | 0 | 0
95 | Nc1nc(N)nc(SCC(=O)N(C2=CCCCC2)C2CC2)n1 | -10 | -5
96 | CC1CCC(C(C)C)C(=O)/C1=C\c1ccc(NC(=O)CCC(=O)O)cc1 (stereo unspecified) | 7 | -21
97 | O=C1CCCN1C(=O)CSc1nc(-c2ccccc2)c(-c2ccccc2)o1 | -69 | -41
98 | c1coc(CNc2nc(C34CC5CC(CC(C5)C3)C4)cs2)c1 | 59* | -26
99 | O=C(Cc1coc2ccc3ccccc3c12)OCC(=O)c1cc2c3c(c1)CC(=O)N3CCC2 | 14 | -15
100 | O=C(Nc1ccc(CN2CCS(=O)(=O)CC2)cc1)c1ccco1 | -7 | 24
101 | CCCC(=O)Nc1cc(=O)n(C)c(=O)n1C | 2 | -8
102 | CC(=O)N1CCc2c(C)cc(Cl)cc21 | 28 | -6

no. | PV pol inh | PV pol inh intensity
91 | 100 | 105
92 | 97 | 99
93 | 105 | 96
94 | 106 | 99
95 | 101 | 104
96 | 103 | 107
97 | 101 | 101
98 | 91 | 91
99 | 107 | 115
100 | 111 | 119
101 | 101 | 107
102 | 102 | 100

Screens: PubChem, ICCB-Longwood Screening Facility, Harvard Medical School
